# Rce1 inhib = yeast Ras-converting enzyme inhibition; Q03530; yeast membranes, quenched prenylated peptide cleavage fluorescence; calls only; actives 0.27% (n = 290,000); AID 2563;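 active means fall in fluorescence gain of 50% or more versus controls, with final raw signal at or below 3038400; inconclusive means same 50% fall but final raw signal above 3038400; inactive means fall in fluorescence gain under 50%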;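 further: plate controls were neutral control wells for no effect and wells lacking membranes for full effect; tested at 10 µM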
# Target sequence (Q03530 whole entry, looked up): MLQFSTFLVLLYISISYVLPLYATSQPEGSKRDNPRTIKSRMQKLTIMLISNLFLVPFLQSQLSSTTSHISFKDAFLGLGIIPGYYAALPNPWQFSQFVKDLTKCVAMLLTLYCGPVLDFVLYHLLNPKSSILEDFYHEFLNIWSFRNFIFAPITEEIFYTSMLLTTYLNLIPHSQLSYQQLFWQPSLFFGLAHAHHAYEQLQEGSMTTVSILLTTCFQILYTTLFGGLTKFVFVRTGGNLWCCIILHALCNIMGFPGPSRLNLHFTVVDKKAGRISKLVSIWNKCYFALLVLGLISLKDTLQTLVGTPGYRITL
# CSC inhib = blocks cancer stem cells. cancer stem cell-like cells viability, luminescence. inhibition, % at 7.5 µM. actives 1.1% (n = 300,000). AID 2717;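 active means mean at 75% or more and at least half the replicates too; inconclusive means mean and replicates disagree; tested in HMLE shEcad cells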;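 further: 0% = median of negative and 100% = median of positive control wells; the first replicate is given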
# Env fusion inh = blocks HIV Env-driven cell-cell fusion; inhibition, % at 12.3 µM; actives 1.1% (n = 360,000); HeLa-JRFL Env/CEM21 cell fusion, luciferase;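 active means mean replicate inhibition score of at least 50 and every replicate individually at or above 50; inconclusive means only one of the two criteria met; inactive means mean below 50 and not all replicates reaching 50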;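 further: 0% = plate neutral controls and 100% = maraviroc near 300 nM; one replicate is shown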
# UUG fidelity = modulators of start codon recognition fidelity in yeast; S. cerevisiae UUG-firefly luciferase reporter, luminescence/redox ratio; actives 0.13% (n = 350,000); activity score, % at 18.7 µM; AID 602363;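 active means replicate mean at a twofold rise or more, about +100% in these data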;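 further: firefly luciferase made from a UUG start codon reports start codon fidelity; reporter light over untreated wells divided by growth signal over untreated wells; some hits fall short of that in this replicate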
# MT1-MMP act inh = inhibitors of human MT1-MMP activation; P50281; HT1080 RFP-PRO-GFP cells, GFP/RFP ratio fluorescence, overnight; percent of plate control window, DMSO zero; GFP/RFP ratio change, % at 20 µM; actives 0.061% (n = 360,000);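 active means GFP/RFP ratio change of at least 30% with cell ATP level not reduced by more than half and red fluorescence within 50% of control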; further: strong numbers were not always called active
#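 system = RFP-PRO-GFP reporter HT1080 cells | dosing = 20 µM single dose, 1% DMSO | timing = overnight cell settling, then overnight compound exposure, 37 °C, 5% CO2 | read-out basis = GFP/RFP fluorescence ratio | controls = DMSO and RFP-L50D-GFP cell wells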
# PABP polyA inh = PABP-poly(A) binding inhibition; P11940; PABP-poly(A) RNA binding, fluorescence polarization; inhibition, % at 35 µM; actives 1% (n = 290,000);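 active means 50% or more with normal probe brightness, or confirmed in later tests; inconclusive means above 50% with abnormal brightness, or retests that disagree; inactive means below 50% or failed in later tests; about a fifth of its hits are not listed in these tables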;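 further: calls also rest on retests at 20 µM and on dose response follow-up; controls were probe without protein and protein plus probe with vehicle; some compounds called inactive have numbers as strong as hits; many hits fall short of the cut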
# Target sequence (P11940 whole entry, looked up): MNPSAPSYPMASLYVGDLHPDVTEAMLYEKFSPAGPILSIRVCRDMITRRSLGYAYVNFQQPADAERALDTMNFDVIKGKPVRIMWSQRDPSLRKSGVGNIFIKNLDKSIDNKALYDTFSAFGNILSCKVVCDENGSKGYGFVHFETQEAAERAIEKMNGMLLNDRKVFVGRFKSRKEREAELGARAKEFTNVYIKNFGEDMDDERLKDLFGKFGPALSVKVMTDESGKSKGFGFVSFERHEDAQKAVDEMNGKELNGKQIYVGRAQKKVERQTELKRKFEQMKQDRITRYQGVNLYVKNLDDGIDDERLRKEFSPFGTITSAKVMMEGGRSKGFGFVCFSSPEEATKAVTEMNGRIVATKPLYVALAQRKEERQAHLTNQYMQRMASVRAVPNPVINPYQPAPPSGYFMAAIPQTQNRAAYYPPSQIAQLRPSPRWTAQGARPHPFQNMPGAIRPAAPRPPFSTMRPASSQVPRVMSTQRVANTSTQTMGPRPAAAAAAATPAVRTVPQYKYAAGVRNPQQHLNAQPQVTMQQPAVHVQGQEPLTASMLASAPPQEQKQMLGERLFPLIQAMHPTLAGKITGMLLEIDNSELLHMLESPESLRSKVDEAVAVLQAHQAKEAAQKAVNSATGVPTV
# eIF4H inh = inhibitors of RNA binding by human eIF4H. Q15056. eIF4H fluorescence polarization binding assay. inhibition, % at 35 µM. actives 0.94% (n = 290,000). AID 2012;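 active means 50% or more with normal probe brightness, or confirmed in later tests; inconclusive means above 50% with abnormal brightness, or retests that disagree; inactive means below 50% or failed in later tests; about a fifth of its hits are not listed in these tables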;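 further: calls also rest on retests at 20 µM and on dose response follow-up; 0% = protein and probe with vehicle and 100% = probe without protein; strong numbers were not always called active; many hits fall short of the cut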
# eIF4H inh retest = also measured in eIF4H inh; calls as there; inhibition, %; compound at 20 µM; confirmation average;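 mean of two retest wells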
# PABP polyA inh retest = further read-out of PABP polyA inh, marked with its call; inhibition, %; compound at 20 µM; confirmation repeats;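 mean of two retest wells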
# MT1-MMP act inh RFP = further read-out of MT1-MMP act inh, marked with its call; RFP signal change, %; measured here: RFP expression control read;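 0 = vehicle wells; hits needed this value within 50% of zero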
# The depositor's hits bear a star; i = inactive; ? = inconclusive; · = not tested or not shown; + = active, no number. Rows are unselected (roughly 2.9% active in at least one column).
SMILES,Rce1 inhib,CSC inhib,Env fusion inh,UUG fidelity,MT1-MMP act inh,MT1-MMP act inh RFP,PABP polyA inh,eIF4H inh,others
CCOP(=O)(OCC)c1nc(-c2ccccc2)oc1N1CCCCC1,?,-4,11,2,-1,0,-5,-2,
O=C(/C=C/N1CCOCC1)c1coc2ccccc12,i,-9,·,-29,-22,0,8,31,
CCOc1ccc(S(=O)(=O)Nc2cc(C)ccn2)c2ccccc12,i,-2,-3,11,-1,-6,-6,-4,
O=C(Nc1cccc(C(=O)O)c1)Nc1ccccc1Cl,i,-10,43,·,-1,6,-9,-13,
Cc1ccccc1OCCOc1cccc(/C=N/NC(=O)Cc2nnc(N)s2)c1,i,4,·,-15,-2,-12,1,-15,
O=C1OCc2ccc([N+](=O)[O-])cc21,·,·,8,-16,5,2,·,·,
CC(C)COC(=O)Cc1c(O)c2ccccc2[nH]c1=O,i,·,-18,-7,-4,1,-1,7,
C=CCOc1ccc(-c2n[nH]c(=S)o2)cc1,+,-3,-6,-29,2,5,3,-8,
CCC(=O)Nc1cc(C(=O)NCC2CCCN2CC)c(OC)cc1N(C)C (configuration not stated),i,-5,-89,-14,-2,2,2,-4,
COc1cc(C(=O)NC2CCCCC2)ccc1OC1CCN(C(C)=O)CC1,i,-8,-13,-4,-3,0,6,7,
O=C(N=C1SCC(=O)N1c1ccccc1Cl)c1ccccc1,i,·,-4,·,0,33,-11,-5,
Cc1ccc(N2C(=O)c3ccccc3C2C(=O)c2cc(C)ccc2O)cc1 (configuration not stated),i,15,-15,-2,0,-5,7,1,
O=C(CSc1nnc(Cc2ccccc2)o1)c1cc(F)ccc1F,i,-9,18,·,2,0,-1,-1,
COc1ccc(NC(=O)OCC(C)C)cc1OC,i,·,·,·,4,7,1,-6,
CCc1ccc(-c2cc3c(=O)n(CC(=O)NCCCN4CCN(C)CC4)ncn3n2)cc1,i,13,6,·,5,3,·,·,
O=C(COc1ccc(Cl)cc1Cl)NCCSc1ccc(Cl)cc1,i,17,·,-16,2,1,2,5,
Cc1ccc(/C=C/C(=O)NCCc2c[nH]c3ccccc23)o1,i,16,10,-15,1,-1,-6,-7,
Cc1ccc(C2(C)NC(=O)N(CC(=O)Nc3cc(C)on3)C2=O)cc1 (configuration not stated),i,4,·,-15,1,7,-6,-4,
O=c1c2ccccc2c(C=Nc2ccc(Cl)cn2)c(O)n1-c1cc(Cl)ccc1N1CCOCC1,i,-5,·,-1,6,3,8,-6,
CCC(=O)N1CCN(c2ccc(NC(=O)c3ccc([N+](=O)[O-])o3)cc2Cl)CC1,i,·,i,·,8,-15,3,1,
Cc1cccc(NC(=O)CSc2ccc(-c3cccnc3)nn2)c1,i,-6,-5,-11,4,-5,-2,-5,
COc1cc(CN2CCC(C(=O)NC(c3ccc(F)cc3)c3ccc4ccccc4n3)CC2)cc(OC)c1 (configuration not stated),·,·,4,6,0,-9,·,·,
O=S(=O)(Nc1ccccn1)c1cccc(S(=O)(=O)c2ccc(Br)cc2)c1,i,15,18,-7,-10,-6,-1,2,
COC(=O)C1=C(C)Nc2ncnn2C1c1cccnc1 (configuration not stated),i,9,-58,-12,4,0,-1,-3,
COc1ccc(Cl)cc1C(=O)Nc1ccncc1,i,-4,-7,-16,-10,-7,1,16,

# Overlap with the part before: 3 entries; new compounds follow.
SMILES,Rce1 inhib,CSC inhib,Env fusion inh,UUG fidelity,MT1-MMP act inh,MT1-MMP act inh RFP,PABP polyA inh,eIF4H inh,others
O=S(=O)(Nc1ccccn1)c1cccc(S(=O)(=O)c2ccc(Br)cc2)c1,i,15,18,-7,-10,-6,-1,2,
COC(=O)C1=C(C)Nc2ncnn2C1c1cccnc1 (configuration not stated),i,9,-58,-12,4,0,-1,-3,
COc1ccc(Cl)cc1C(=O)Nc1ccncc1,i,-4,-7,-16,-10,-7,1,16,
COc1ccc(CN2C(=O)CSCC2=O)cc1OC,i,-1,-7,-18,-2,2,-11,-9,
CC1SCC(NC(=O)c2ccc(Cl)cc2)CS1 (configuration not stated),i,8,-21,2,0,-6,4,7,
NS(=O)(=O)c1ccc(CCNC(=O)CNC(=O)Cc2ccccc2)cc1,i,-16,4,-21,2,5,-4,2,
O=C(c1ccccc1)c1ccc(OCC(O)CNCc2ccc(F)cc2)cc1 (configuration not stated),i,1,13,13,3,1,-3,4,
Nc1ccc(C(=O)N/N=C/c2cn(Cc3ccc(F)cc3)c3ccccc23)cc1,i,2,27,-16,4,-3,4,-1,
O=C(COC(=O)c1cc(S(=O)(=O)N2CCOCC2)ccc1F)Nc1cc([N+](=O)[O-])ccc1F,·,-7,-55,2,3,4,·,·,
COc1ccc(C2/C(=C(\O)c3ccc4c(c3)OCCO4)C(=O)C(=O)N2Cc2ccco2)c(OC)c1 (configuration not stated),i,-10,-47,-14,-17,7,-2,-5,
CC(c1ccccc1)N1C(=O)C2C3C=CC(C4CC34)C2C1=O (configuration not stated),i,·,27,·,-1,1,-2,-1,
N#CC1=C(N)NC(=S)C(C(N)=O)C1c1ccc([N+](=O)[O-])cc1 (configuration not stated),i,-8,22,12,2,-1,2,8,
COc1ccc(C/C(C)=N\NC(=O)c2c[nH]c3ccccc23)cc1OC,i,-2,-6,-18,3,7,0,-10,
COc1ccc(C(=O)Nc2nnc(-c3ccccc3)s2)cc1,i,·,-85,-11,-1,-4,-6,9,
CC(C)C(NC(=O)CNC(=O)OC(C)(C)C)C(=O)NCc1ccccc1 (configuration not stated),i,-1,-99,-16,3,5,-1,-1,
Cc1csc(NC(=O)C2CCCN(S(=O)(=O)c3cnc[nH]3)C2)n1 (configuration not stated),i,-6,-3,-4,0,-1,6,38,
CCCCN(C(=O)CSc1nnc(-c2ccc(OC)cc2)n1CC)c1c(N)n(Cc2ccccc2)c(=O)[nH]c1=O,·,·,-19,·,3,-3,2,-7,
CC(=O)Nc1ccc(S(=O)(=O)N(Cc2cccnc2)Cc2cc3ccccc3[nH]c2=O)cc1,i,18,15,-17,-16,4,-1,-8,
O=C(NCc1ccc(Cl)nc1)c1csc(COCCO)n1,·,·,4,-16,-6,6,·,·,
COc1ccc(NC(=S)N2CCC(NC(=O)c3ccco3)CC2)cc1,·,-2,-3,-10,4,5,-4,-19,
Cc1nc(Cl)c(N=Cc2cccc([N+](=O)[O-])c2)c(Cl)n1,i,-7,-6,·,1,3,5,-11,
COCc1[nH][nH]c(=O)c1C=Nc1ccc(C(F)(F)F)cc1,i,-3,-10,·,0,1,5,-6,
CN(C)C(=O)Nc1ccccc1CC[N+](=O)[O-],i,-7,3,-9,-1,0,81,-4,eIF4H inh retest=3;PABP polyA inh retest=3
CC(=O)Nc1cccc(-c2ccnc3c2CC(C)(C(=O)NCC2CC2)O3)c1 (configuration not stated),·,·,2,-33,-2,-10,·,·,
C#CCOCCOCCOCCNc1nc(N2CCN(C(=O)[C@H]([C@@H](C)CC)n3cc(CCCCN)nn3)CC2)nc(N2CCN(C(=O)[C@H]([C@@H](C)CC)n3cc(CCCN=C(N)N)nn3)CC2)n1,·,-7,-7,-10,-2,0,·,·,
CCOc1ccc(Cn2ccnc2)cc1[N+](=O)[O-],i,6,-99,·,7,5,-3,0,
CCc1ccc2nc(Nc3ccc(OC)cc3OC)c(C#N)cc2c1,i,9,-22,·,-6,-2,11,7,
CC12CCC(=O)N1C(C(=O)Nc1nc(-c3ccccc3)cs1)CS2 (configuration not stated),i,-10,-37,·,2,-5,·,·,
# Next results follow.
SMILES,Rce1 inhib,CSC inhib,Env fusion inh,UUG fidelity,MT1-MMP act inh,MT1-MMP act inh RFP,PABP polyA inh,eIF4H inh,others
COc1ccc(C(=O)NC(=S)NNC(=O)c2ccc(NC(C)=O)cc2)cc1Br,i,-16,12,·,10,7,0,15,
CCN(CC)S(=O)(=O)c1ccc(C(=O)NNc2nc(-c3ccccc3)c3cc(Br)ccc3n2)cc1,i,5,-32,·,1,-10,-16,8,
Cn1cc(S(=O)(=O)NC2CCCCCC2)c(=O)n(C)c1=O,i,-8,·,-25,-6,2,1,-5,
COc1ccccc1Cc1c(-c2ccc(OC)c(OC)c2)nc2ccc(Br)cn12,·,·,5,-1,5,6,·,·,
CCN(CC)S(=O)(=O)c1ccc(C(=O)N2CCN=C2SC)cc1,i,-8,-2,-22,-5,4,-20,-10,
CC(Oc1cc2oc(=O)c3c(c2cc1Cl)CCC3)C(=O)NCc1cccnc1 (configuration not stated),i,-24,-3,-18,2,4,-4,-2,
Cc1ccc(C(=O)NCCNC(=O)c2cnccn2)cc1,i,-4,4,-7,2,2,7,4,
CC(C)(C)c1nnc(SCC(=O)Nc2ccc(N3CCCCC3)cc2)n1N,·,-11,-13,-9,2,1,·,·,
O=C(Nc1ccccc1Cl)N1CCN(c2ccc3nnc(-c4ccc(F)cc4)n3n2)CC1,i,15,12,-10,-3,-8,-10,-3,
COCCN=c1scc(-c2ccco2)n1/N=C/c1ccc(O)c(O)c1O,·,1,9,-19,-1,-1,4.6*,?,PABP polyA inh retest=57*
COc1ccc(NS(=O)(=O)c2ccc(NS(=O)(=O)c3cccs3)cc2)cc1,i,4,0,-6,2,5,14,1,
C/C(=N\Nc1nnc2c3ccccc3n(C)c2n1)c1ccc(C)o1,i,-15,-17,·,4,-2,5,2,
CCN(CC(=O)Nc1ccc(C(C)=O)cc1)CC(=O)Nc1ccc2c(c1)OCCO2,·,-7,5,8,-3,-1,·,·,
CC1CCCC(C)N1NC(=O)Cc1ccccc1 (configuration not stated),i,-5,-8,·,2,1,19,-4,
CC(NC(=O)c1cccs1)c1ccc2c(c1)OCO2 (configuration not stated),i,-5,·,·,7,3,12,-2,
O=C(NCc1ccccc1F)c1cc(=O)[nH]c2ccccc12,i,-7,-42,-15,-2,4,0,7,
Cc1ccc(C(=O)N2CCN(c3cccc(C)c3C)CC2)o1,i,39,i,-17,-2,-3,-10,-1,
COc1ccc(-c2cc(C3CCN(CC(O)C(F)(F)F)CC3)[nH]n2)cc1 (configuration not stated),i,·,4,-18,-1,-1,-3,2,
CN(C)S(=O)(=O)c1ccccc1C#N,i,-4,·,-13,1,0,0,3,
Cc1[nH]n(-c2ccccc2)c(=O)c1C=Nc1ccc(S(=O)(=O)N(C)C)cc1,i,-8,5,-4,-2,1,9,-4,
O=C(NCC1CCCO1)c1cccc(S(=O)(=O)NCc2ccccc2)c1 (configuration not stated),i,-14,3,-13,-1,1,11,-2,
c1ccc(C2=Nc3c(ccc4ccccc34)C(c3ccncc3)=NN2)cc1,i,47,5,·,-13,-11,-14,-13,
O=C(CSC1=NNC(c2ccccn2)S1)Nc1cccc(Cl)c1 (configuration not stated),i,64,22,-9,-5,-2,-1,19,
Cn1c(N)c(C(=O)COC(=O)COc2cc(Cl)c(Cl)cc2Cl)c(=O)n(C)c1=O,·,-7,3,-20,-1,3,·,·,
CN(C(=O)c1cccn(Cc2ccccc2)c1=O)c1ccccc1,i,0,11,·,-5,-1,0,4,
Cc1cc(C)cc(NC(=O)c2ccc(S(=O)(=O)N(C)CC3CCCO3)cc2)c1 (configuration not stated),i,4,-20,15,4,0,12,17,
CC(C)CNC(=O)c1c2c(nc3ccccc13)-c1ccccc1CC2,i,-6,-42,-18,0,0,-12,-4,
CCO/C=C1\C(=O)N(c2ccc(OCC)cc2)C(=O)c2ccccc21,·,-20,3,-42,1,1,1,-8,

# Source: PubChem BioAssay
